# Source: PubChem BioAssay
# VACV mCherry inh = vaccinia inhibition (mCherry reporter); Vaccinia virus mCherry reporter infection, fluorescence; about a quarter of the inactives have no number; Potency, µM (top dose mostly 36.5 µM), for the others: at the highest dose activity change, negative = inhibition, hits mostly inhibitors; actives 0.63% (n = 310,000); AID 720579; active = well fitted inhibition curve with a large enough effect; inconclusive = small, poorly fitted or top-dose-only effect; inactive = no such curve, though single readings can be large or run the other way; tested in A549 cells; further: nearly all actives have a fitted effect of over 35% in size; inactives centre near -10
# VACV Venus inh = inhibitors of vaccinia virus (Venus reporter). Vaccinia virus Venus reporter expression, fluorescence. actives 0.46% (n = 330,000). Potency, µM (titrated, usually from 36.5 µM), inactives show at the highest dose activity change, negative = inhibition, usual class: inhibitors; active means well fitted inhibition curve with a large enough effect; inconclusive means small, poorly fitted or top-dose-only effect; inactive means no such curve, though single readings can be large or run the other way; tested in A549 cells; further: nearly all actives have a fitted effect of over 30% in size; inactives centre near -10
# * marks the source's active call; other numbers are inactive results; i = inactive; ? = inconclusive; nt = not tested or not shown; [ ] = remark or other dose. On the % scale 0 is the no-effect control and ±100 the full control effect; potency means the concentration at half of the fitted maximal effect. Random draw from the library; about 0.82% have a hit in one of these screens.
SMILES,VACV mCherry inh,VACV Venus inh
O=[N+]([O-])C(C1CCS(=O)(=O)C1)C1CCS(=O)(=O)C1 (configuration not stated),5%,-12%
N#Cc1c(-c2ccc(F)cc2)cc(-c2cccnc2)nc1N,-9%,-9%
O=C(COC(=O)c1ccc(F)cc1)Nc1ccc2c(c1)OCO2,-18%,1%
COc1ccccc1C1CN(Cc2cccnc2)Cc2ccccc2O1 (configuration not stated),-12%,6%
COc1ccc(OC(C)C(=O)N(C)Cc2nc(-c3ccccc3)no2)cc1 (configuration not stated),-17%,-17%
Cc1ccc(-c2noc(CN(C(=O)c3ccc4c(c3)OCO4)C(C)C)n2)cc1,-18%,-8%
CC1CCN(c2oc(-c3ccco3)nc2S(=O)(=O)c2ccccc2)CC1,-15%,-5%
CC(=O)Nc1ccc(C(=O)N/N=C/c2ccccc2OC(=O)c2ccc(Cl)cc2)cc1,-15%[1.46 µM],?
CCCCn1c(N)c(N(CC(C)C)C(=O)c2cccs2)c(=O)[nH]c1=O,-12%,-7%
CCC(C)Nc1nnnc2c1sc1nc3c(cc12)COC(C)(C)C3 (configuration not stated),-11%,-8%
CCOC(=O)N1CCN(C(=O)CSc2nc3c([nH]c4ccccc43)c(=O)n2C)CC1,i,-13%
CCN(CC)CCCNC(=O)c1cn(-c2cccc(OC)c2)c(=O)c2ccccc12,-8%,-11%
Cc1ccc(CSc2nnc(SCC(=O)N/N=C/c3ccc(C(=O)O)cc3)s2)cc1,?,-4%
Cc1cccn2c(=O)c(C=O)c(Nc3ccc(S(N)(=O)=O)cc3)nc12,-13%,3%
COc1cc(C(=O)N/N=C/c2sccc2C)cc(OC)c1OC,?,-26%
Cc1ccccc1C(=O)OCC(=O)Nc1cccc(S(=O)(=O)N2CCCCC2)c1,-1%,-14%
Oc1ccccc1C=NCCN=Cc1ccccc1O,-6%,-4%
O=C(Nc1ccccc1Cl)N1CCC(CN2CCCCC2)CC1,-6%,-13%
Cc1ccc(Cl)cc1NC(=O)C1CCN(c2nc3ccccc3n3cccc23)CC1,-9%,-16%
Cc1cc(C)c2nc(N(Cc3cccnc3)C(=O)c3ccc(S(=O)(=O)N(C)C)cc3)sc2c1,-21%,-17%
COC(=O)c1c(NC(=O)CCCOc2cccc(C)c2)sc2c1CCC(C)C2 (configuration not stated),-8%,1%
Cc1cc(=O)[nH]c(SCCOc2ccc3c(c2)CCC3)n1,-7%,-2%
CCCOc1ccccc1OCC(=O)Nc1cc(Cl)ccc1-n1cncn1,-12%,-11%
COC(=O)C1=C(c2ccccc2)C[C@@H]2CC[C@H]1N2C(=O)NCc1ccccc1,i,-12%
COc1ccc(C(CC(=O)N2CCOCC2)c2c(O)cc(OC)cc2OC)cc1 (configuration not stated),i,-2%

# 3 entries from above, ordered by number of heavy atoms, high to low.
SMILES,VACV mCherry inh,VACV Venus inh
Cc1cc(C)c2nc(N(Cc3cccnc3)C(=O)c3ccc(S(=O)(=O)N(C)C)cc3)sc2c1,-21%,-17%
Cc1cccn2c(=O)c(C=O)c(Nc3ccc(S(N)(=O)=O)cc3)nc12,-13%,3%
O=[N+]([O-])C(C1CCS(=O)(=O)C1)C1CCS(=O)(=O)C1 (configuration not stated),5%,-12%

# Remaining list, next part
SMILES,VACV mCherry inh,VACV Venus inh
Cn1nc(C(F)(F)F)c2cc(C(=O)O)sc21,6%,-3%
Cc1ccc(S(=O)(=O)N(C)CC(=O)Nc2cccc3c2CCCC3)cc1,-7%,-26%
CCN1CCN(C2=NC(=O)/C(=C/c3ccc(C)o3)S2)CC1,i,0%
CC(=O)c1ccc(NC(=O)Cn2cc(S(=O)(=O)Cc3cccc(Cl)c3)c3ccccc32)cc1,-12%,-22%
CC(=O)N(C)N(C)c1cc(C)nc(N)n1,-12%,-11%
O=C(Cn1nc(-c2ccc(Cl)cc2)ccc1=O)N1CCN(c2ccccc2)CC1,-15%,-20%
C/C(=N\NC(=O)c1ccccc1)C1C2C=CC(C2)C1(C)C (configuration not stated),-8%,-28%
COCCCNC(=O)C1CC(=O)N(CCc2ccc(F)cc2)C1 (configuration not stated),-27%,-13%
CSc1ccc(C2NC(=O)c3c(sc4c3CCN(C)C4)N2)cc1 (configuration not stated),?,1%
CCN(CC)C(=O)c1ccc2c3c(cccc13)C(=O)N(CCc1ccc(OC)c(OC)c1)C2=O,?,?
CCOC(=O)C1(C)CCCN1C(=O)c1ccc(N(C)C)cc1 (configuration not stated),2%,-4%
Cc1cc(NC(=O)C(C)SCC(=O)Nc2cc(C(F)(F)F)ccc2N2CCCCC2)no1 (configuration not stated),-24%,?
COc1ccc(CC(=O)NNC(=O)c2cc(C)oc2C)cc1OC,-2%,-16%
Cc1c(Cl)cccc1NC(=O)CS(=O)(=O)c1ccccc1,i,-4%
Cc1nc2ccc(NC(=S)N3CCN(c4ccccn4)CC3)cc2nc1C,-20%,-13%
Nc1ccc2c(c1)-c1ccc(F)cc1C2=O,i,6%
O=C(Nc1ccc(Oc2ncccn2)cc1)c1ccco1,-9%,-6%
Cc1cccc(NC(=O)C(C)SCc2nc3sc4c(c3c(=O)[nH]2)CCCC4)n1 (configuration not stated),-13%,-7%
COc1ccccc1NC(=O)N1c2ccc(F)cc2CCC1C (configuration not stated),-17%,-19%
Nc1c(N(CCC2=CCCCC2)C(=O)CCCOc2ccccc2)c(=O)[nH]c(=O)n1Cc1ccccc1,-5%,?
Cc1ccccc1OCCC(=O)Nc1ccc(N2CCOCC2)cc1N1CCOCC1,-20%,-14%
CCOc1ccccc1C(=O)N1CCC(c2nc3ccccc3o2)CC1,3%,-6%
Cn1c(N)c(C(=O)COC(=O)c2cnc(Cl)c(Cl)c2)c(=O)n(C)c1=O,0%,-4%
COc1ccc2c(c1)C1OCCNC1CC2 (configuration not stated),17%,6%
CC(C)S(=O)(=O)NC(=O)C1(C)CCN1C(=O)Cc1ccccc1Cl (configuration not stated),-10%,3%

# Next structures follow.
SMILES,VACV mCherry inh,VACV Venus inh
CCC(=O)Nc1nc2ccc3sc(C)nc3c2s1,-22%,-25%
O=C1SCCC1NS(=O)(=O)c1ccccc1[N+](=O)[O-] (configuration not stated),-1%,-7%
Cc1ccc(C)c(N2CCN(S(=O)(=O)c3cc(C(=O)Nc4ccccc4C(F)(F)F)ccc3F)CC2)c1,-11%,-13%
Cc1ccc(C)c(NC(=O)CSc2cn(CC(=O)N3CCCC3)c3ccccc23)c1,i,-11%
O=C(Nc1ccc(F)c(F)c1)c1cnn2c1NC(=C1CC1)C=C2C(F)F,i,-17%
Cc1ccc(C(=O)N[C@@H](C)CN2C3=NC[C@H](Cc4ccccc4)N3C[C@H]2Cc2ccc(O)cc2)cc1Br,?,13µM*
CC(C)CNC1=C(C(=S)Nc2ccccc2)C(=O)CC(C)(C)C1,-19%,-8%
CCc1cc(=O)oc2cc(C)cc(OCc3nn[nH]n3)c12,nt,-2%
CCC1(C)N=C(c2ccc3c(c2)OCO3)CC(c2ccccc2O)N1 (configuration not stated),-15%,-17%
CCOc1ccc(S(=O)(=O)N2CCOCC2)cc1NC(=O)CN1C(=O)NC(C)(C2CC2)C1=O (configuration not stated),i,-15%
Cc1cc(=O)n2nc(N3CCCC(C(=O)NCCCN4CCc5ccccc5C4)C3)sc2n1 (configuration not stated),-4%,-16%
COC(=O)c1cc(OC)c(OC)cc1NC(=O)CSc1nnnn1Cc1ccccc1,nt,-3%
CC(=O)/C=C/c1ccc(C)o1,i,-7%
O=S(=O)(c1cccc(F)c1)N1CCC(c2nc3ccccc3s2)CC1,2%,-13%
O=C(CN1CCCCCCC1)Nc1ccc(Cl)cc1Cl,-5%,-9%
CC(C)c1ccc(CNc2ncccn2)cc1,i,-5%
COC(=O)C1=C(c2ccc(OC)c(OC)c2)C[C@@H]2CC[C@H]1N2C(=O)NC1Cc2ccccc2C1,-6%,?
Cc1c(NC(=O)C(C)OC(=O)CCc2ccccc2)c(=O)n(-c2ccccc2)n1C (configuration not stated),i,2%
COc1ccc(C2=NOC(CNC(=S)N3CCOCC3)C2)cc1 (configuration not stated),i,-13%
CC(=O)Nc1ccc(N=NN2CCOCC2)cc1,-8%,-8%
CCN(Cc1ccccc1)C(=O)COC(=O)c1cc(S(=O)(=O)Nc2c(C)n(C)n(-c3ccccc3)c2=O)ccc1C,-4%,-11%
O=C(O)c1ccc(Cl)c(NC(=S)NC(=O)c2cccc(COc3ccccc3)c2)c1,i,-13%
Cc1ccc(S(=O)(=O)N2CCN(C3CCN(Cc4ccccc4)CC3)CC2)cc1,i,-10%
COc1cccc(-c2ncc3ccccc3c2COC(=O)c2ccc(F)cc2)c1,?,-15%
COc1ccc(-c2nc3cc(C)ccc3cc2CN(C(=O)c2ccc(C)s2)C2CC2)cc1OC,-21%,-9%

# Reprinted at random: 3 entries already listed, in no set order.
SMILES,VACV mCherry inh,VACV Venus inh
COc1cccc(-c2ncc3ccccc3c2COC(=O)c2ccc(F)cc2)c1,?,-15%
Cc1ccc(C)c(N2CCN(S(=O)(=O)c3cc(C(=O)Nc4ccccc4C(F)(F)F)ccc3F)CC2)c1,-11%,-13%
O=C(Nc1ccc(F)c(F)c1)c1cnn2c1NC(=C1CC1)C=C2C(F)F,i,-17%

# More entries
SMILES,VACV mCherry inh,VACV Venus inh
CCn1c(-c2csc(-c3ccccc3)n2)n[nH]c1=S,nt,?
COC(=O)N(NC(=O)C(O)(c1ccccc1)c1ccccc1)c1ccccc1,i,0%
COC(=O)N/N=C/c1c(C)nn(-c2cccc(Cl)c2)c1Cl,-16%,-26%
O=C1CCCN2N=C(SCC(=O)Nc3ccc(OC(F)(F)F)cc3)SC2=N1,-9%,-12%
Cc1ccc(Cl)cc1N1CCN(C(=O)c2ccc(NS(=O)(=O)c3c(C)noc3C)cc2)CC1,?,-24%
Cc1ccc(S(=O)(=O)N(C)C)cc1NC(=O)CN1C(=O)NC2(CCc3ccccc32)C1=O (configuration not stated),i,-7%
O=C(CN1CCCc2ccccc21)NCCc1ccc(Cl)cc1,-17%,-4%
CSc1ccc(/C=C2\CCn3c2nc2cc(C(=O)O)ccc2c3=O)cc1,-8%,0%
CCc1ccc2[nH]c(=O)c(CN(CCCN3CCOCC3)C(=O)Nc3cccc(Cl)c3)cc2c1,nt,?
Cc1cc(N2C(=O)C(O)=C(C(=O)c3ccco3)C2c2ccc(O)cc2)no1 (configuration not stated),nt,-18%
COc1ccc(C)cc1S(=O)(=O)n1ccnc1C,i,-8%
Cc1ccc2cc(CN(C)C(=O)C3CCCO3)c(=O)[nH]c2c1 (configuration not stated),nt,-23%
O=C(Nc1ccc2nc(-c3ccccc3)oc2c1)c1ccco1,-19%,-4%
CCOc1ccc(NC(=O)Cn2cc(S(=O)(=O)N3CCN(c4ccccc4F)CC3)c3ccccc3c2=O)cc1,-9%,-8%

# 6 of the compounds above, with values under each structure:
# Values run as follows: VACV mCherry inh | VACV Venus inh
COc1ccc(C(CC(=O)N2CCOCC2)c2c(O)cc(OC)cc2OC)cc1 (configuration not stated)
→ i | -2%
Cn1nc(C(F)(F)F)c2cc(C(=O)O)sc21
→ 6% | -3%
Cc1ccc(S(=O)(=O)N(C)CC(=O)Nc2cccc3c2CCCC3)cc1
→ -7% | -26%
CCN1CCN(C2=NC(=O)/C(=C/c3ccc(C)o3)S2)CC1
→ i | 0%
CC(=O)c1ccc(NC(=O)Cn2cc(S(=O)(=O)Cc3cccc(Cl)c3)c3ccccc32)cc1
→ -12% | -22%
CC(=O)N(C)N(C)c1cc(C)nc(N)n1
→ -12% | -11%
